NPYLR7 agonist: mosquito NPYLR7 agonism; HEK293T NPYLR7/Galpha15, GCaMP6s calcium fluorescence; actives 0.15% (n = 270,000); activation, % at 10 µM; in the data active means activation above about 40%;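 further: 0% = vehicle and 100% = reference agonist at the receptor; some compounds past the cut are filed as inactive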
NPYLR7 agonist max-min: second read-out of NPYLR7 agonist, no call of its own (marks repeat the call); activation, %; measured here: Max-Min RFU normalised activation; some inactives read as strong as hits;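 span of the calcium signal over five minutes; 0% = vehicle and 100% = native peptide agonist; compound fluorescence can raise it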
An asterisk follows results filed as active. An excerpt; the hit share may differ from the screen's.

Each structure is followed by: NPYLR7 agonist | NPYLR7 agonist max-min
- COc1ccc(-c2ccc(=O)n(Cc3cccnc3)n2)cc1
  0 | 0
- CCOC(=O)c1c(NC(=O)COC(=O)c2cccc3ccccc23)sc(C(=O)N(CC)CC)c1C
  -8 | -12
- CCc1csc(CNC(=O)Cc2c(C)nc(N)nc2C)n1
  -6 | -7
- c1ccc(Cc2nnc3n2CCN(Cc2cc4n(n2)CCNC4)CC3)cc1
  5 | 4
- COCC(=O)Nc1nnc(SCc2cc(F)ccc2F)s1
  20 | 33
- COc1ccccc1NC(=O)c1cc2ccccc2c(=O)[nH]1
  -1 | 0
- CCC1Nc2ccc(C(=O)Nc3nc(C)cs3)cc2NC1=O (stereo unspecified)
  -3 | -3
- Cc1cccc(NC2=NC3CS(=O)(=O)CC3S2)c1 (stereo unspecified)
  -1 | 0
- Cc1ccc(Cc2nc(N3CCN(C(=O)Nc4ccccc4F)CC3)c3c(-c4cccnc4)noc3n2)cc1
  15 | 2
- COCCCNc1c(F)c(F)c(C=CCN2CCOCC2)c(F)c1F
  1 | -2
- O=C(CC1NC(=O)c2ccccc21)NCCCn1nnc2ccccc21 (stereo unspecified)
  -1 | 5
- CN(Cc1cc([N+](=O)[O-])ccc1Cl)C(=O)CCc1ncc(-c2ccc(F)cc2)o1
  4 | 8
- O=C(NCc1ccccn1)C1(Oc2ccc(Cl)cc2)CCNCC1
  -2 | 13
- COCCN(Cc1ccc(OC)c(OS(=O)(=O)c2ccc(F)cc2)c1)C(=O)c1c(OC)cccc1OC
  8 | 13
- Cc1[nH]n(-c2nc(-c3ccc(Cl)cc3)cs2)c(=O)c1N=Nc1cccc(C(F)(F)F)c1
  -13 | -19
- CN(Cc1nnc(C2CC2)n1C)C(=O)C1C2CC3CC(C2)CC1C3 (stereo unspecified)
  3 | 4
- Cc1c(C(=O)NN=Cc2ccc(C#N)cc2)nc2ccccn12
  -10 | -12
- Cn1ccnc1CN(CC1CCOC(C)(C)C1)C1CC1 (stereo unspecified)
  2 | 1
- Cc1cc(C)cc(CCC(=O)NCc2cc(C)[nH]n2)c1
  1 | -3
- CCC1CN(C(=O)CCc2ccc(S(N)(=O)=O)cc2)CCO1 (stereo unspecified)
  1 | 0
- Fc1ccc(C2CCNCC2COc2ccc3c(c2)OCO3)cc1 (stereo unspecified)
  -3 | -9
- CCCCCCNC(=O)c1csc(CN(CCOC)C(=O)Nc2ccc(Cl)c(Cl)c2)n1
  0 | 13
- COc1ccc(C(=O)NCCCN2CCOCC2)cc1Oc1nc(Cc2ccc(F)cc2)ns1
  35 | 31
- C=CCN1CCN(c2cc(Cl)ccc2C)C(=O)C1C (stereo unspecified)
  -2 | 2
- CCc1ccc(CN2N=NC3C(=O)N(c4ccc(C)cc4)C(=O)C32)cc1 (stereo unspecified)
  -1 | -7
- OC1(CNc2ccnc3c(F)ccc(F)c23)CCOCC1
  8 | 7
- O=c1c2cnn(-c3ccccc3)c2ncn1Cc1cc(=O)n2ccsc2n1
  0 | 3
- COc1ccc2nc(-c3ccc(OC)c(NS(=O)(=O)c4ccc(Cl)cc4)c3)cn2n1
  -6 | -9
- O=C(NC1CCCN(CCc2ccccc2)C1)c1ccc(N2CCCC2=O)cc1 (stereo unspecified)
  2 | 0
- CCOCCn1nc(C)cc1C(=O)N1CCC2(CN(C)C(=O)O2)C1 (stereo unspecified)
  13 | 11

Continued.
Each structure is followed by: NPYLR7 agonist | NPYLR7 agonist max-min
- Fc1ccc(Cn2c(COc3ccccc3)n[nH]c2=S)cc1
  -14 | -21
- CCCCOC(=O)N1CCC2(CC1)CN(C)CCN2C
  14 | 10
- CSc1ccccc1OCc1cc(C(=O)NC(C)Cn2cncn2)no1 (stereo unspecified)
  16 | 7
- Cc1ccc(C)c(C2CC(c3ccc(F)cc3)=NN2C(=O)CN2CCN(Cc3ccccc3)CC2)c1 (stereo unspecified)
  -13 | -11
- CCN(CCO)c1nc(NC2CCCCC2)c2cnn(C)c2n1
  10 | 6
- O=C(NCCc1nnc2ccccn12)c1ccc(F)cc1Br
  -4 | -3
- Cc1nc(S(=O)(=O)N(CCc2ccccc2)C2CCN(C)CC2)cn1C
  4 | 1
- CCn1cc(CN2CCC(C(=O)Nc3ccc(Oc4ccccc4F)cc3)CC2)cn1
  16 | 9
- NC(CCc1ccccc1)c1csc(Nc2cnccn2)n1 (stereo unspecified)
  0 | -2
- COc1cn(CC(=O)Nc2ccc(Cl)cc2)c(CN2CCC(C)CC2)cc1=O
  -1 | -1
- O=C(CCc1nc(-c2ccoc2)no1)NC1CC1C1CCCCC1 (stereo unspecified)
  2 | 1
- COc1cccc(-n2nnc3c(N4CCN(C(=O)c5ccccc5SC(F)F)CC4)ncnc32)c1
  -5 | -19
- C=CCOCCn1nc(C)cc1C
  0 | 8
- CCNc1nnc(SCC(=O)c2c(N)n(C3CC3)c(=O)[nH]c2=O)s1
  -2 | 13
- CNC(=S)NN=C(C)c1ccc(C(C)(C)C)cc1
  1 | -3
- COc1ccccc1Oc1ncccc1CNC(=O)c1c(Cl)cnn1C
  -5 | -5
- CCOC(=O)C1(Cc2ccc(Cl)cc2)CCN(C(=O)C2CC23CCCC3)CC1 (stereo unspecified)
  15 | 2
- Cc1nc(CC(=O)N2CCCC(CCC(=O)N3CCN(c4ccccn4)CC3)C2)cs1 (stereo unspecified)
  2 | -3
- CCOC(=O)NN=C1CC(C)CC(C)(C)C1 (stereo unspecified)
  -3 | -6
- Cc1[nH]c2c(c1C(=O)N1CCCC(CCc3ccccc3F)C1)C(=O)CCC2 (stereo unspecified)
  8 | 3
- CCN(CCOc1ccccc1F)c1c(N)n(Cc2ccccc2)c(=O)[nH]c1=O
  1 | 1
- COc1cc(/C=C2N=C(/C=C/c3ccc(Cl)cc3)OC/2=O)ccc1OC(C)=O
  -4 | -9
- O=C(C(Cl)Cl)N(CC(=O)N1CCc2sccc2C1c1ccc(Cl)cc1Cl)Cc1ccco1 (stereo unspecified)
  -2 | 0
- CCOC(=O)c1c(NC(=O)C(C)C)sc(C(C)=O)c1C
  0 | -2
- CN(CN1C(=O)CC2(CCCC2)C1=O)C1C2CC3CC(C2)CC1C3 (stereo unspecified)
  1 | -2
- CC(=O)N1N=C(c2ccc(Cl)cc2)CC1c1cn(-c2ccccc2)nc1C (stereo unspecified)
  5 | 8
- CC1CC1C(=O)NCc1cc(F)cc(Br)c1 (stereo unspecified)
  4 | 2
- Cn1c(N)c(C(=O)CSC2=NCCS2)c(=O)n(C)c1=O
  8 | 5
- Cc1ccc(-c2nc(C)cc(N3CCNCC3)n2)cc1
  -5 | 6
- COC(=O)c1cnc(NC(=O)c2ccc(-c3ccccc3[N+](=O)[O-])o2)s1
  9 | 14

7 entries already listed, sorted by molecular weight, ascending.
Each structure is followed by: NPYLR7 agonist | NPYLR7 agonist max-min
- Cc1ccc(-c2nc(C)cc(N3CCNCC3)n2)cc1
  -5 | 6
- CC1CC1C(=O)NCc1cc(F)cc(Br)c1 (stereo unspecified)
  4 | 2
- NC(CCc1ccccc1)c1csc(Nc2cnccn2)n1 (stereo unspecified)
  0 | -2
- CCNc1nnc(SCC(=O)c2c(N)n(C3CC3)c(=O)[nH]c2=O)s1
  -2 | 13
- Cc1nc(S(=O)(=O)N(CCc2ccccc2)C2CCN(C)CC2)cn1C
  4 | 1
- Cc1[nH]c2c(c1C(=O)N1CCCC(CCc3ccccc3F)C1)C(=O)CCC2 (stereo unspecified)
  8 | 3
- CCOC(=O)C1(Cc2ccc(Cl)cc2)CCN(C(=O)C2CC23CCCC3)CC1 (stereo unspecified)
  15 | 2

Other entries:
Each structure is followed by: NPYLR7 agonist | NPYLR7 agonist max-min
- COc1ccc(-c2cc3nc(C)cc(NC(C)c4ccccc4)n3n2)cc1OC (stereo unspecified)
  5 | 5
- COCCN1N=C(c2ccccc2)Cn2c1nc1c2c(=O)n(CCOC)c(=O)n1C
  5 | 3
- Cc1cc(C)c2nc(N)sc2c1
  2 | -3
- O=c1c2cc(O)c(O)cc2oc2cc(O)c(C3O[C@H](CO)[C@H](O)[C@@H](O)[C@H]3O)c(O)c12 (stereo partly specified)
  3 | -5
- CC(NC(=O)c1cc(Cl)ccc1Cl)c1ccc(NC(N)=O)cc1 (stereo unspecified)
  4 | -1
- O=C(C1CCOC1)N1CCC(n2cnc3cc(C(F)(F)F)ccc32)CC1 (stereo unspecified)
  8 | 20
- COC(=O)c1ccccc1NC(=O)c1nnn(-c2ccc(C(C)C)cc2)c1C
  8 | 3
- Cc1ccc(NC(=O)Nc2ccc(N3CCCCC3)c(C(=O)NC(C)c3ccccc3)c2)c(C)c1 (stereo unspecified)
  -2 | 5
- CC1CCCN(CCNC(=O)c2ccc(NC(=O)NC3CC3)cc2)C1 (stereo unspecified)
  10 | 7
- COc1cccc(Cc2nsc(Oc3cccc(C(=O)NC4CC4)c3)n2)c1
  20 | 15
- CCN1C(=O)NC(=O)C12CCN(Cc1cc3n(n1)CCNC3)CC2
  8 | 4
- CS(=O)(=O)NCCNC(=O)c1ccc(NC(=O)C2CCCC2)cc1
  -9 | -10
- CC1=C(C(=O)OC(C)C)C(c2ccccc2Cl)C2=C(CCCC2=O)N1 (stereo unspecified)
  -2 | -6
- COC(=O)C1=C(C)NC2=C(C(=O)CC(c3ccccc3)C2)C1c1ccccc1OC(C)C (stereo unspecified)
  6 | 7
- CCOC(=O)CN(C(=O)CNC(C)(C)CC)c1ccccc1
  1 | -1
- Cc1cc(-c2nnc(NC(=O)c3nc4ccccc4s3)o2)nn1C
  -10 | -18
- Cc1csc(C(=O)N(CCC#N)CC2CCCO2)c1 (stereo unspecified)
  11 | 6
- COc1cccc(C(=O)CSc2nnc(NC(=O)c3cccc(Cl)c3)s2)c1
  21 | 21
- COc1ccccc1NS(=O)(=O)c1cccc(Cl)c1Cl
  0 | -1
- Cc1nn(C)c2ncc(C(=O)O)c(N3CCOC(c4ccc(F)cc4)C3)c12 (stereo unspecified)
  3 | -9
- CC1CCCCN1CCCNC(=O)c1cc(-c2ccccc2F)nc2cc(C(C)(C)C)nn12 (stereo unspecified)
  -2 | 7
- Clc1cnc(NN=Cc2ccco2)c(Cl)c1
  -15 | -22
- Cc1cccc(-n2c(C)cn3c4c(=O)n(CC(=O)C(C)(C)C)c(=O)n(C)c4nc23)c1C
  -1 | -3
- CCN(CC)S(=O)(=O)N1CCN(S(=O)(=O)c2ccc(C)cc2)CC1
  -1 | -2
- CC1C(=O)N(c2ccc(F)c(Cl)c2)CCN1C(=O)c1ccc(Cl)c(Cl)c1 (stereo unspecified)
  -2 | 3
- CCN1CCN(Cc2cc(C(=O)N3CC=CCC3)no2)CC1
  3 | 1
- NC(=O)c1c(NC(=O)CN2CCOCC2)sc2c1CCC2
  2 | 0
- O=C(c1ccccc1O)N1N=C(C2CCCCC2)CC1(O)C(F)(F)F (stereo unspecified)
  8 | 4
- CN(C)c1ncc2c(n1)CCCC2NC12CC3CC(CC(C3)C1)C2 (stereo unspecified)
  14 | 10
- CC1(NC(=O)NC2(C)CCS(=O)(=O)C2)CCS(=O)(=O)C1 (stereo unspecified)
  0 | -2

2 of the compounds above, with each value named.
CC1=C(C(=O)OC(C)C)C(c2ccccc2Cl)C2=C(CCCC2=O)N1 (stereo unspecified)
  NPYLR7 agonist = -2	NPYLR7 agonist max-min = -6

COC(=O)C1=C(C)NC2=C(C(=O)CC(c3ccccc3)C2)C1c1ccccc1OC(C)C (stereo unspecified)
  NPYLR7 agonist = 6	NPYLR7 agonist max-min = 7

Remaining list, next part.
Each structure is followed by: NPYLR7 agonist | NPYLR7 agonist max-min
- CCCCOc1ccc(C(=O)N2CCN(C(=O)CCCCSc3nnc(Cc4ccccc4)n3-c3ccc(Cl)c(Cl)c3)CC2C)cc1 (stereo unspecified)
  14 | 9
- Cc1cc(C)cc(CC(=O)N2CCC2(C)C(=O)NS(=O)(=O)c2ccccc2Cl)c1 (stereo unspecified)
  2 | 0
- CCCCC(CC)C(=O)Nc1c(-c2cc(F)ccc2F)nc2ccccn12 (stereo unspecified)
  -11 | -9
- CN(CC(=O)NC1CCCCC1)C1CCS(=O)(=O)C1 (stereo unspecified)
  -1 | -2
- Cc1cc(COC(=O)c2ccccc2NC(=O)NC(C)C)no1
  0 | -2
- COC(=O)C1=C(C)OC(=N)C(C#N)C1c1ccc2c(c1)OCO2 (stereo unspecified)
  8 | 8
- COc1ccc(OC)c(/C=C2\C(=O)N(c3cccc(Cl)c3)N=C2C)c1
  -3 | -19
- Cn1cc(-c2cc3c(Nc4cccc(C(F)(F)F)c4)nccc3[nH]2)cn1
  7 | -4
- CC1CN(S(=O)(=O)c2cccc(C(=O)OCc3cc(-c4ccccc4)no3)c2)CC(C)O1 (stereo unspecified)
  2 | -1
- Cc1cc(-c2nnc(NC(=O)C3CC3)o2)n(C)n1
  -2 | -1
- CCCSc1nnc(NC(=O)c2ccc(F)cc2)s1
  0 | -7
- CCc1ccccc1OC1CN(C2CCNCC2)C1
  4 | 2
- CC1CC(=O)Nc2c1c(NC(=O)CC1CCCC1)nn2C (stereo unspecified)
  -16 | -20
- O=C(c1csc(CSc2nnc(-c3cccnc3)n2-c2ccccc2F)n1)N1CCN(c2cccc(Cl)c2)CC1
  4 | 4
- Cc1cncc(CN2CCC(=C3c4ccc(Cl)cc4CCc4cccnc43)CC2)c1
  5 | -4
- CN1CCN(c2nc3ccc(Cl)cc3n3cnnc23)CC1
  -2 | -2
- COc1ccc(NS(=O)(=O)c2cnc[nH]2)cc1Cl
  13 | 8
- CCOC(=O)C1C(C)=NC2=C(C(=O)c3ccccc32)C1c1ccc([N+](=O)[O-])o1 (stereo unspecified)
  -1 | 5
- Cc1cccnc1C(=O)N1CCc2nnc(CCc3ccccc3)n2CC1
  2 | 0
- C=CCOc1cccn2c(N(C)C(=O)c3ccc(OC)cc3)c(CC)nc12
  9 | -2
- C=CCNc1ccccc1C(=O)NCCN1CCCC1
  5 | 3
- O=C(Nc1nnc(C2CCCCC2)s1)C1CCCO1 (stereo unspecified)
  8 | 6
- Cc1csc(NC(=O)CSc2nc(=O)n(N3CCN(C)CC3)c3c2CCC3)n1
  -3 | -6
- Cc1ccc(S(=O)(=O)N(C)C)cc1C(=O)Nc1cccc(Cl)c1F
  6 | 4
- Cc1c(C)n2c3c(=O)n(C)c(=O)n(C)c3nc2n1Cc1ccccc1
  8 | 7
- COCC(=O)Nc1ccc(N(C)C)c(CN(CC2CC2)C(=O)c2ccccc2Cl)c1
  3 | 19
